HCMV UL50-53 inh = inhibitors of HCMV UL50-UL53 nuclear egress complex interaction; HTRF UL50-UL53 interaction, normalized percent inhibition; inhibition, % (test concentration not listed); 0.15% of 190,000 active; AID 1918969;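 active means both replicates at 50% or more, plus weaker picks with an unusually low signal ratio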;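 further: stock transfer was 100 nL into about 20 µL; 0% = negative control wells and 100% = wells with untagged competitor protein; inactives centre near -12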
GIV Gai3 FP = GIV-Galpha-i interaction inhibition; 0.42% of 210,000 active; percent of control (FP), % (test concentration not listed); Galpha-i3/FITC-GIV peptide fluorescence polarization, 90 min; hits give low values; scaled: aluminum fluoride 0%, vehicle 100%; AID 1224905;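 active means replicate mean at 85% of control or lower, very high polarization wells dropped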;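 further: wells of about 15 µL received 100 nL stock; the first replicate is given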
Target sequence (P08753 whole entry, looked up): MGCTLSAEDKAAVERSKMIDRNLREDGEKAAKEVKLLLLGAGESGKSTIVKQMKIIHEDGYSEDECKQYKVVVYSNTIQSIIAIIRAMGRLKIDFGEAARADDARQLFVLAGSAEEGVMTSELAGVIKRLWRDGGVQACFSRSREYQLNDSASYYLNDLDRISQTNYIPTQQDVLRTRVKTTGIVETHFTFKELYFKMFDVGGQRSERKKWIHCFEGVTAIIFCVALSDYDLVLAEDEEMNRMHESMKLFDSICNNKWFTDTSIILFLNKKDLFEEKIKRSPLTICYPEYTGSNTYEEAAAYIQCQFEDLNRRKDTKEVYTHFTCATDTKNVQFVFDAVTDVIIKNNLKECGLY
Sa growth inh = inhibitors of Staphylococcus aureus growth at 42 °C; AID 720641; relative growth, % (test concentration not listed); S. aureus RN4220 growth, OD600, 20 h; hits give low values; 0.53% of 170,000 active;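 active means growth at 42 °C up to 50% and 20 or more points under that at 30 °C, or under 10% at both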;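 further: 300 nL library stock went into each well; scaled to the means of positive and negative controls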
Sa growth inh second temp = recorded beside Sa growth inh, whose call it bears; relative growth, %; measured here: growth at 30 °C;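 optical density after 20 h as mean of two plates; 100% = untreated growth and lower means inhibition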
Starred values were filed as active, the others as inactive; / = not tested or not shown; & = joins results of further samples.

#	SMILES	HCMV UL50-53 inh	GIV Gai3 FP
1	FC(F)(F)c1cnc(SCc2nc3ccccc3o2)c(Cl)c1	-25	/
2	CCC(=O)N1CCc2cc(Br)cc(S(=O)(=O)CCC(=O)N(C)c3ccc(OC)cc3OC)c21	-6	96
3	CCCOc1ccc(CNC(=O)C2CCN(c3nn4c(=O)cc(C)nc4s3)CC2)cc1	-1	107
4	CCN(CC)C(=O)c1sc2nc(-c3cccs3)cc(C(F)(F)F)c2c1N	1	/
5	CC(C)C(=O)Nc1ccc2[nH]c(=O)[nH]c2c1	14	105
6	COc1ccc(CCNC(=O)c2ccc(Cn3c(=O)c4ccccc4n(Cc4ccccc4Cl)c3=O)cc2)cc1OC	-1	100
7	Cc1coc2c1c(C)cc1oc(=O)c(CC(=O)NCc3ccc(Cl)cc3)c(C)c12	-24	103
8	O=C(C1=NN(c2ccccc2)C(=O)CC1)N1CCN(c2ncccn2)CC1	-37	/
9	COc1cccc(C(=O)NCCn2c(C)cc3ccccc32)c1	10	108
10	O=C(CNC(=O)c1ccccc1)NC1CCCC1	-38	/
11	O=C(Nc1ccccc1)N(Cc1ccc(F)cc1)c1ccccn1	6	104
12	COc1cccc(-c2nc3n(c2C(=O)Nc2nccs2)CCS3(=O)=O)c1	-16	102

#	Sa growth inh	Sa growth inh second temp
1	72	94
2	105	71
3	101	92
4	98	96
5	93	100
6	91	89
7	104	92
8	90	91
9	105	90
10	108	85
11	104	90
12	/	/

#	SMILES	HCMV UL50-53 inh	GIV Gai3 FP
13	CCCCc1ccc(NC(=O)c2cc3c(=O)n4ccccc4nc3s2)cc1	-13&-21	99&99
14	O=C(O)c1cc(-c2ccco2)on1	-19	112
15	Cc1ccc(CSCc2ccc(C(=O)O)o2)cc1	-29	101
16	COCCNC(=O)C1(C)Cn2cnc(C(=O)OC)c2C(=O)N1C1CC1 (stereo unspecified)	-19	101
17	CCCCn1c(=O)c2ccccc2c2ccccc2c1=O	/	105
18	CCN(CC)C(=O)c1ccc(Nc2nnc(-c3ccc(C)c(S(=O)(=O)NC)c3)c3ccccc23)cc1	-118	99
19	CCOc1ccc(NC(=O)CSC2=Nc3ccccc3C3=NC(CCC(=O)NCc4cccs4)C(=O)N23)cc1 (stereo unspecified)	/	94
20	CC(=O)Nc1ccc(NC(=O)CCn2c(C(F)(F)F)nc3cc(S(=O)(=O)N(C)C)ccc32)cc1	-24	103
21	COc1ccc(N(Cc2nc3nc(C)cc(=O)n3[nH]2)S(=O)(=O)c2ccccc2)cc1	-4	101
22	Cc1cc(C(F)(F)F)nc(SCC(=O)NCc2ccccc2)n1	-6	105
23	CSC/C(N)=N/S(=O)(=O)c1ccc(Cl)cc1	-6	99
24	CCOC(=O)C1CCN(c2csc3ccc(C)cc3c2=O)CC1	/	105

#	Sa growth inh	Sa growth inh second temp
13	105	97
14	84	64
15	104	94
16	/	/
17	78	88
18	104	77
19	84	89
20	/	/
21	/	/
22	110	81
23	110	83
24	115	82

#	SMILES	HCMV UL50-53 inh	GIV Gai3 FP
25	COc1cc(-c2nc3ccccc3c(=O)n2NC(=O)Cc2ccc(Cl)cc2)cc(OC)c1OC	-12	102
26	CNS(=O)(=O)c1cccc(C(=O)OCc2nnc(-c3cc(OC)c(OC)c(OC)c3)o2)c1	14	/
27	C/C(CCc1ccc2c(c1)OCO2)=N\Nc1nc(C)cc(C)n1	4	/
28	CC(C)Oc1ccc(CNC(=O)CCCN2C(=O)c3cccnc3Oc3ccc(Cl)cc32)cc1	/	103
29	COc1ccc(NC(=O)Cn2c(=O)cc(C)c3c(C)nn(-c4cccc(Cl)c4C)c32)cc1OC	/	104
30	COc1ccc(CCC(=O)NCCc2cn3c(C)csc3n2)cc1	-23	105
31	COc1ccc(NC(=O)CSc2nc(-c3cccs3)cc(C(F)(F)F)n2)c(OC)c1	6	99
32	COc1ccc(CC(=O)Nc2ccc3nc(Nc4ccc(OC)cc4)cc(C)c3c2)cc1	/	103
33	c1ccc(-n2nnnc2N2CCCC2c2nc3ccccc3s2)cc1 (stereo unspecified)	0	/
34	Cn1c(=O)n(C)c2cc(S(=O)(=O)CC(=O)NC3CC3)ccc21	-22	97
35	COc1ccc(CCNC(=O)C2CCN(S(C)(=O)=O)CC2)cc1OC	-10	106
36	COCc1nnc(NC(=O)/C=C/c2ccc3c(c2)OCO3)s1	/	101

#	Sa growth inh	Sa growth inh second temp
25	/	/
26	88	93
27	97	88
28	100	87
29	88	82
30	100	84
31	88	97
32	136	82
33	118	84
34	/	/
35	88	92
36	106	91

#	SMILES	HCMV UL50-53 inh	GIV Gai3 FP
37	CCOc1ccc(CN2C(=O)c3ccccc3Sc3ccc(C(=O)NCCCN4CCOCC4)cc32)cc1	10	108
38	Cc1nccc2[nH]c(=O)c(C(=O)NCc3ccc(F)cc3)cc12	-7	112
39	COC(=O)CSc1cc(C)nc(N)n1	-9	/
40	O=C(NCCSc1ccccc1)c1cc2ccccc2o1	-35	105
41	COC(=O)/C=C1\NC(=O)C(C)S1 (stereo unspecified)	-8	/
42	CCOc1cc(C2C(C(=O)Nc3ccccc3)=C(C)Nc3nnnn32)ccc1OCc1ccccc1 (stereo unspecified)	-8	105
43	Cc1cccc(CSc2nnc3n2CCN3c2ccccc2)c1	-13	104
44	Cc1cc(C(=O)N2C(C)CCCC2C)on1 (stereo unspecified)	-38	104
45	O=C(O)c1ccc(N2CCN(CC(=O)N3CCCC3)CC2)c(NC(=O)c2ccccc2Cl)c1	-22	96
46	CN(Cc1ccccc1)C(=O)Cn1c(=O)oc2cc(S(=O)(=O)N3CCCCC3)ccc21	/	108
47	O=C(CSc1oc(-c2cccs2)nc1S(=O)(=O)c1ccccc1)Nc1ccc(F)cc1	-19	105
48	C=CCc1cc(C(=O)O)cc(OC)c1OC	-23	/

#	Sa growth inh	Sa growth inh second temp
37	90	67
38	97	92
39	102	85
40	72	86
41	108	98
42	/	/
43	/	/
44	/	/
45	/	/
46	87	94
47	102	96
48	103	91

#	SMILES	HCMV UL50-53 inh	GIV Gai3 FP
49	Cc1ccc(C2SCC(C(=O)O)N2C(=O)c2cccc(Cl)c2)cc1 (stereo unspecified)	-10	/
50	COc1ccc(N2CCN(S(=O)(=O)c3csc(C(N)=O)c3)CC2)cc1	/	107
51	Oc1c(C(c2cccnc2)N2CCCCC2)ccc2cccnc12 (stereo unspecified)	-25	/
52	CCOc1cc(-c2ccccc2)nc(N)n1	-8	105
53	CC1CCCCC1NC(=O)c1cccc(N2C(=O)C3C4C=CC(C4)C3C2=O)c1 (stereo unspecified)	/	96
54	CCN(c1ccccc1)S(=O)(=O)c1ccc(-n2cccn2)cc1	-28	103
55	Cc1ccc(C)c(OC(=O)/C=C/c2ccco2)c1C	-6	/
56	O=C(O)CN1CCC(c2ccccc2)CC1	-3	/
57	CC1CCCC(C)N1C(=O)COc1ccc(C(=O)O)cc1 (stereo unspecified)	-2	/
58	Cc1ccc(S(=O)(=O)NCC2COC3(CCCCC3)O2)cc1 (stereo unspecified)	-25	102
59	Cc1ccc(S(=O)(=O)c2nnn3c2nc(NCc2ccccc2)c2sccc23)cc1	/	103
60	CC(C)OCCCn1c(=O)c2cc(Cl)ccc2n2c(=S)[nH]nc12	-17	101

#	Sa growth inh	Sa growth inh second temp
49	132	96
50	106	104
51	101	86
52	94	90
53	100	86
54	92	85
55	84	78
56	111	84
57	78	92
58	88	90
59	96	85
60	/	/

#	SMILES	HCMV UL50-53 inh	GIV Gai3 FP
61	Cn1c(C2CC(=O)N(c3cccc4ccccc34)C2)nc2ccccc21 (stereo unspecified)	-6	105
62	Cc1cc(S(=O)(=O)N(C)CCc2ccccc2)ccc1-n1cnnn1	1	106
63	COc1ccc(OC)c(C2CC(c3ccc(Br)cc3)=NN2C(=O)CCCC(=O)O)c1 (stereo unspecified)	-49	104
64	O=C(O)CC1c2ccccc2CCN1C(=O)Nc1cc(Cl)ccc1Cl (stereo unspecified)	/	101
65	CCOC(=O)C1=C(C)Nc2nnnn2C1c1cccc(Br)c1 (stereo unspecified)	15	112
66	NCC1COc2ccccc2O1 (stereo unspecified)	-2	105
67	COc1ccc(NC(=O)Cn2c(CCC(=O)O)ccc2-c2ccccc2)cc1Cl	-31	100
68	COc1ccc(N2CC(NC(=O)N(CC(C)C)CC(C)C)CC2=O)cc1 (stereo unspecified)	6	104
69	COC(C(=O)NCc1ccc(C)cc1)c1ccccc1 (stereo unspecified)	-12	/
70	Cc1cc(C)nc(NS(=O)(=O)c2ccc(NC(=O)c3ccc(Cl)cc3Cl)cc2)n1	-4	100
71	O=C(CCc1ccc(-c2ccccc2)o1)N1CCN(S(=O)(=O)Cc2ccccc2)CC1	-4	/
72	NC(=O)c1c(NC(=O)c2cc(-c3ccc(F)cc3)on2)sc2c1CCCC2	-12	101

#	Sa growth inh	Sa growth inh second temp
61	0.4*	0.2*
62	132	102
63	/	/
64	152	80
65	/	/
66	112	79
67	108	86
68	104	94
69	96	88
70	/	/
71	88	86
72	96	89

#	SMILES	HCMV UL50-53 inh	GIV Gai3 FP
73	CCOC(=O)c1ccc(Nc2nc3ccccc3n3c(C)nnc23)cc1	-18	103
74	O=C1Nc2ccccc2C1=NCCCN=C1C(=O)Nc2ccccc21	-35	100
75	CC(C)(C)C1CCC(OC(=O)CCC(=O)Nc2nccs2)CC1 (stereo unspecified)	-7	101
76	Cc1cccc(CNC(=O)CN2C(=O)CCn3nc(-c4cn(C)c5ccccc45)cc32)c1	/	112
77	Cc1csc2c(=O)sc(NC(=O)c3cccs3)nc12	58*	103
78	CCC1(C)Cc2c(sc3nc(SC)n(-c4ccc(C)cc4)c(=O)c23)CO1 (stereo unspecified)	-6	105
79	Cc1cccc(-c2cc3nc(-c4ccccc4)cc(=O)n3[nH]2)c1	-11	93
80	COC(=O)c1ccc(COC(=O)c2ccc3ncsc3c2)o1	-9	/
81	O=C(NC(=S)SCc1ccc(Cl)cc1)c1ccccc1	-24	/
82	COc1ccc(OC)c(-c2noc(N3CCN(c4cc(C)ccc4C)CC3)n2)c1	/	98
83	COC(=O)c1ccc(OCCN2C3=NCCN3c3ccccc32)cc1	/	100
84	N#Cc1ccc(C(=O)OCC(=O)c2cc3ccccc3o2)cc1	-22	/

#	Sa growth inh	Sa growth inh second temp
73	109	99
74	93	74
75	104	86
76	102	81
77	96	81
78	109	95
79	130	78
80	88	97
81	97	83
82	90	89
83	98	84
84	88	86

#	SMILES	HCMV UL50-53 inh	GIV Gai3 FP
85	O=C(CCNS(=O)(=O)c1ccc2[nH]c(=O)ccc2c1)Nc1ccc(CN2CCCCC2)cc1	12	99
86	O=C(COC(=O)c1cc(Br)ccc1O)NC1CCCCC1	-44	/
87	O=C(CCn1c(=O)c2ccccc2n(Cc2cc(=O)n3ccccc3n2)c1=O)NCc1ccc2c(c1)OCO2	-36	105
88	COc1ccc(-c2n[nH]c3c2C(c2ccc(OC)cc2)N(c2ccccc2)C3=O)cc1 (stereo unspecified)	-11	110
89	COCCn1c(C)cc(C(=O)c2sc(-c3c(N)n(C)c(=O)n(C)c3=O)nc2-c2ccccc2)c1C	-28	/
90	COc1ccc(-n2ccnc(NCc3cccs3)c2=O)cc1	/	103
91	CN(C(=O)Cn1c(SCc2ccccc2F)nc2ccncc21)c1ccccc1	/	105
92	COc1cccc(C(=O)NCc2ccc3c4c(cccc24)C(=O)N3)c1	-50	/
93	COc1ccc(-c2nn(-c3ccccc3)cc2NC(=O)Nc2cccc(C#N)c2)cc1OC	-35	/
94	Cc1[nH]c(C(=O)N2CCC(CC(=O)N3CCOCC3)CC2)c(C)c1C(=O)OC(C)C	-15	103
95	CN(C)C(=O)/C(=C/C=C/c1ccccc1)NC(=O)c1ccccc1	-27	/

#	Sa growth inh	Sa growth inh second temp
85	96	109
86	91	89
87	90	82
88	98	86
89	102	96
90	96	92
91	107	88
92	106	103
93	79	87
94	/	/
95	86	80

Among those listed so far, 9 contain an aryl thioether with sulfur outside any ring.
#	SMILES	HCMV UL50-53 inh	GIV Gai3 FP
1	FC(F)(F)c1cnc(SCc2nc3ccccc3o2)c(Cl)c1	-25	/
22	Cc1cc(C(F)(F)F)nc(SCC(=O)NCc2ccccc2)n1	-6	105
31	COc1ccc(NC(=O)CSc2nc(-c3cccs3)cc(C(F)(F)F)n2)c(OC)c1	6	99
39	COC(=O)CSc1cc(C)nc(N)n1	-9	/
40	O=C(NCCSc1ccccc1)c1cc2ccccc2o1	-35	105
43	Cc1cccc(CSc2nnc3n2CCN3c2ccccc2)c1	-13	104
47	O=C(CSc1oc(-c2cccs2)nc1S(=O)(=O)c1ccccc1)Nc1ccc(F)cc1	-19	105
78	CCC1(C)Cc2c(sc3nc(SC)n(-c4ccc(C)cc4)c(=O)c23)CO1 (stereo unspecified)	-6	105
91	CN(C(=O)Cn1c(SCc2ccccc2F)nc2ccncc21)c1ccccc1	/	105

#	Sa growth inh	Sa growth inh second temp
1	72	94
22	110	81
31	88	97
39	102	85
40	72	86
43	/	/
47	102	96
78	109	95
91	107	88

Source: PubChem BioAssay
